# High-throughput results deposited in PubChem BioAssay by several laboratories.
# B2AR ag: beta2AR agonists driving receptor internalization, primary screen, cell-based, FAP fluorogen, flow cytometry; Beta-2 adrenergic receptor (Homo sapiens), P07550; response, % (no concentration beside the values); AID 504454, 2011; actives 0.43% (n = 340,000); Am2.2-beta2AR cells; reference of the scale not given here;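 active = response above a set limit, near 3 SD of response in nonfluorescent compounds, cut at about 42% in these data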;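 note: stock transfer was 100 nL into about 11 µL; a reference agonist was the positive control; negative values mostly stem from fluorescent compounds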
# Target sequence (P07550 whole entry, looked up): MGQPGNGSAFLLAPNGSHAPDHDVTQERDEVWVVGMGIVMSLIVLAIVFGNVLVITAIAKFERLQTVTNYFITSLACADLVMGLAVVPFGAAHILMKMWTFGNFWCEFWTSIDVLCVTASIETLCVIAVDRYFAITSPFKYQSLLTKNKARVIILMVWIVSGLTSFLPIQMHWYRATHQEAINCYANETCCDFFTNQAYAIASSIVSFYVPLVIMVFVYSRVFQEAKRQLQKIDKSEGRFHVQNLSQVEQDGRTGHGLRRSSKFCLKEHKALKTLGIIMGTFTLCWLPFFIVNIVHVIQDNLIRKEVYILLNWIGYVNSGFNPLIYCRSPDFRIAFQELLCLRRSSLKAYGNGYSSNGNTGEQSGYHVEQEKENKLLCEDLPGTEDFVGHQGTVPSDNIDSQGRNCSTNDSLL
# HNF4A DNA FP: change in binding of human HNF4A to DNA, primary screen, biochemical, fluorescence polarization, FITC-DNA | 1 h | actives 0.3% (n = 360,000) | activity change, % at 10 µM | AID 1224865, 2016; in the data active = activity change above about 30%, passing the limit was not always enough;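 note: controls were the assay level and a saturating level of protein; the project sought stronger binding though the title names inhibitors; some compounds called inactive have numbers as strong as hits; positive values seem to mean higher polarization but the record does not say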
# Target sequence (P41235 whole entry, looked up): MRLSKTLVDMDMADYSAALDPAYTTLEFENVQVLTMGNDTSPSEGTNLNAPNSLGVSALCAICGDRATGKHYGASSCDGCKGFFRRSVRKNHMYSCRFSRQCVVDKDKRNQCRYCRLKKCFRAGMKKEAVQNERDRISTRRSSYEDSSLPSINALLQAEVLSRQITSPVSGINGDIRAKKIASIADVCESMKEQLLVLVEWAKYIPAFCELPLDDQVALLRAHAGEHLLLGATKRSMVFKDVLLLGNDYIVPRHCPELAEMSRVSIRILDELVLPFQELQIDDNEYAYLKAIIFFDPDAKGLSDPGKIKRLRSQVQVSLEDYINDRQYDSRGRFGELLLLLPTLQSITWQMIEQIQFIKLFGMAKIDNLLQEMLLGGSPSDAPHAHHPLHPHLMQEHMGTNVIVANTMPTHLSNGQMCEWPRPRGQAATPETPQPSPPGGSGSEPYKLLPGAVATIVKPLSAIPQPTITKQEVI
# E coli growth: E. coli growth inhibition, primary screen, OD600 | Escherichia coli growth, 23 h; active compounds read low | OD600 absorbance (no concentration beside the values) | actives 0.21% (n = 330,000) | AID 1053175, 2014;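 active = OD600 absorbance below the run mean of sample wells minus 3.6 SD, in any replicate, cut at about 0.56 in these data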;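 note: stock transfer was 300 nL into about 60 µL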
# UCH37 DUB inh: inhibitors of human UCH37 deubiquitinase, primary screen, biochemical, Ub-AMC cleavage, fluorescence; Ubiquitin carboxyl-terminal hydrolase isozyme L5 (Homo sapiens), Q9Y5K5; purified proteasome/UCH37; inhibition, % (no concentration beside the values); actives 0.33% (n = 330,000);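 active = mean of two replicates above 20%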;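 note: 0% = compound-free wells with enzyme and 100% = wells lacking proteasome; stock transfer was 100 nL into about 20 µL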
#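 Signal – fluorescence, ex 355 nm, em 460 nm · System – Proteasome-bound UCH37 · Input – 0.15 nM proteasome as dispensed · Timing – 30 min preincubation with enzyme, 25 min cleavage at room temperature · Read-out basis – percent inhibition of cleavage signal versus uninhibited and no-proteasome wells · Medium – Tris-HCl pH 7.4 with ATP-MgCl2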
# FGF22 binding: binders of human FGF22 protein, primary screen, FGF22 synaptogenesis inhibitor project, biophysical, thermal shift, single point. AID 651658, 2012. actives 1.5% (n = 340,000). calls only at 9.99 µM. recombinant FGF22 thermal shift, SYPRO orange fluorescence; percent of sucrose octasulfate shift, DMSO zero;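 active = melting point raised past a set limit in the mean and every replicate; three in four hits are not shown here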
# Target sequence (Q9HCT0 whole entry, looked up): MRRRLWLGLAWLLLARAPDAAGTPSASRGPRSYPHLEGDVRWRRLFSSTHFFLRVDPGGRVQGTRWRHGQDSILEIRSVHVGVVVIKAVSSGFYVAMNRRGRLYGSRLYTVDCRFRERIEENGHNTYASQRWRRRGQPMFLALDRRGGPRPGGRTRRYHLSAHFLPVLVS
# ALR H2O2 inh: inhibitors of human ALR sulfhydryl oxidase, primary screen, biochemical, H2O2 detection, HRP-luminol luminescence, single point. inhibition, % (concentration not given with the values). purified ALR, DTT oxidation. actives 3.8% (n = 290,000);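 active = mean and each replicate at 75% or more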;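 note: stock transfer was 7.5 nL into about 7.5 µL; 0% = neutral wells and 100% = wells with inactivated enzyme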
# LANA-H2A inh: blockers of LANA interaction with H2A/H2B – biochemical, FP readout, HTS, primary screen; inhibition, % (test concentration not listed); cell-free LANA-H2A/H2B peptide, fluorescence polarization; Protein LANA1 (Human herpesvirus 8 type P (isolate GK18)), Q9QR71; actives 0.6% (n = 320,000); in the data active = inhibition mostly above about 10%, no sharp cut-off; inactive = mostly below about 6.7%;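 note: stock transfer was 7.5 nL into about 10 µL; 0% = median of vehicle wells and 100% = median of positive control wells; one replicate is shown; the record names a cut of 25% in any replicate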
# An asterisk follows results filed as active; i = inactive; nt = not tested or not shown. An excerpt; rates above refer to the full screens.
structure,B2AR ag,HNF4A DNA FP,E coli growth,UCH37 DUB inh,FGF22 binding,ALR H2O2 inh,LANA-H2A inh
O=C(NCc1ccco1)C1CC(c2ccccc2O)=NO1 (stereo unspecified),-1.9,1.0,0.662,1.6,i,12.6,-1.5
O=C1C(C=NCCCn2ccnc2)=C(O)c2ccccc21,3.3,1.0,0.742,12.8,nt,9.6,-3.3
C=CCNC(=O)c1sc(=S)n(-c2ccc(C(=O)OCC)cc2)c1N,6.6,1.5,0.665,7.3,i,1.5,39.5*
Cc1cc(C)c2c(n1)SCC(=O)N2CC(=O)Nc1ccccc1Cl,3.1,0.0,0.726,4.1,i,-0.9,0.5
O=C(COc1ccccc1)N(Cc1cc2ccccc2[nH]c1=O)CC1CCCO1 (stereo unspecified),-11.7,2.1,0.696,-0.1,nt,-23.2,4.5
O=C(COc1ncnc2cc([N+](=O)[O-])ccc12)NCc1ccc2c(c1)OCO2,-7.1,3.3,0.762,2.7,nt,2.1,0.8
CCc1cc2c(=O)c(-c3nc4ccccc4n3C)c(C)oc2c(CN2CCN(C)CC2)c1O,nt,nt,0.66,-84.1,nt,-1.1,-0.9
OCCCc1nc2ccccc2n1CCc1ccccc1,0.1,-1.7,0.654,0.1,i,-5.6,-0.9
CCOc1ccc(C)cc1S(=O)(=O)Nc1cccnc1,-0.4,1.3,0.761,4.5,nt,0.3,1.6
Cc1ccccc1-n1ncc2c(SCC(=O)NCc3cccs3)ncnc21,-1.7,0.6,0.715,5.6,nt,1.7,-1.1
CCc1nnc(NS(=O)(=O)c2ccc(NC(=O)/C=C/c3ccc(F)cc3)cc2)s1,-0.3,3.2,0.676,0.7,i,98.0*,5.2
CCOC(=O)c1[nH]cnc1C(=O)NCc1ccccc1,-4.7,0.6,0.702,0.8,i,nt,-1.4
Cc1ccc(S(=O)(=O)NCCC(=O)OCC(=O)N2CCCC2=O)cc1C,3.2,-0.4,0.688,3.4,i,-3.3,8.4
CN(NC(=O)c1ccccc1F)c1ccc([N+](=O)[O-])cn1,-3.3,-0.4,0.663,12.7,i,-4.5,0.4
O=C(NCC1CCCO1)/C(=C/c1cn(-c2ccccc2)nc1-c1cccnc1)NC(=O)c1ccccc1 (stereo unspecified),-17.5,1.6,0.644,0.7,i,1.6,2.6
CSc1nnc(Cn2c(=O)sc3ccccc32)n1C,1.4,-0.7,0.725,4.5,nt,-23.2,-4.0
COc1ccccc1N1CCN(C(=O)c2sc3nc(-c4ccccc4)cn3c2C)CC1,1.3,-0.7,0.713,0.0,nt,-1.0,-1.4
COc1ccc(-n2cc(C(=O)c3ccccc3O)cn2)cc1,-4.3,-1.8,0.665,1.0,nt,-9.3,1.2
Cc1nn(Cc2ccccc2)c(C)c1CNC(=O)CN=C1NS(=O)(=O)c2ccccc21,-6.8,2.0,0.636,4.1,i,nt,nt
Cc1cc(C)n2nc(NCc3cccc(Br)c3)nc2n1,-12.8,-1.1,0.676,-37.8,nt,3.4,-2.9
CN(C)Cc1c(O)ccc2c(=O)c(-c3ccccc3Cl)c(C(F)(F)F)oc12,0.1,-2.7,0.641,-6.2,i,-3.2,-1.0
NC(=O)COn1c(SCC(N)=O)nc2ccccc2c1=O,-4.7,2.0,0.658,4.4,i,-8.1,0.6
O=C(CNC(=O)c1ccc(Br)o1)NCC(=O)OCc1ccccc1,-7.4,-0.8,0.609,5.1,i,-8.3,-1.8
Cn1ccc(-c2cc(C(=O)O)c3ccccc3n2)n1,3.6,0.3,0.684,-1.8,nt,-3.4,0.7
CN(Cc1ccccc1)C(=O)CSc1nc2cc(C(=O)N3CCC(C(N)=O)CC3)ccc2c(=O)n1-c1ccccc1,nt,nt,0.667,0.2,nt,0.9,4.7
Cc1ccccc1CN(C)CCc1ccccn1,-15.1,-1.1,0.65,6.5,i,1.1,0.7
CCOc1cccc2cc(-c3cn4cc(C)ccc4n3)c(=O)oc12,-6.0,-4.8,0.674,-4.9,nt,4.5,-4.2
CSc1nnc(-c2cc(C)on2)n1-c1ccccc1,3.7,0.1,0.71,-1.3,nt,-1.9,4.7
CC(C)(C)c1nnc(NC(=O)CCS(=O)(=O)c2ccccc2)s1,-2.0,1.4,0.65,3.9,i,-15.7,1.1
CC(Sc1nnc(-c2ccc(O)cc2)o1)C(=O)Nc1cccc2ccccc12 (stereo unspecified),-6.5,-4.8,0.671,4.1,nt,nt,2.1
CN(C)c1cccc(Oc2nc3c(c(=O)n(C)c(=O)n3C)n2C)c1,3.6,1.0,0.657,6.8,i,71.4,2.7
CN(C)CCNC(=O)c1c(CSc2ccccc2)noc1C(=O)NCc1ccccc1,-1.1,-2.0,0.712,0.5,i,-12.4,5.7
CCOC(=O)c1c(-c2ccc(-c3ccccc3)cc2)csc1NC(=O)CNCCN(C)C,20.3,1.4,0.413*,25.1*,i,nt,1.8
Cc1cc(C(C)(C)C)oc1C(=O)N(CC(=O)NC1CCCC1)Cc1ccc(F)cc1,10.5,0.3,0.693,0.2,nt,nt,-0.9
CCOC(=O)C1CCN(C(=O)c2cc(COc3ccc(F)cc3F)on2)CC1,6.9,2.6,0.686,-0.7,i,-4.6,-11.5
CCN(CC)c1ccc(C=NNc2ccc([N+](=O)[O-])cn2)cc1,-46.2,29.3,0.725,2.7,i,nt,nt
Cc1cc(/C=C2\SC(N)=NC2=O)c(C)n1-c1ccccc1,2.6,10.5,nt,6.9,nt,nt,-4.8
CC1CCCN(C(=O)Cn2nnc(-c3ccc(N(C)C)cc3)n2)C1 (stereo unspecified),-2.3,-3.2,0.668,-5.3,nt,9.2,0.9
CCC1CCCCN1C(=O)c1ccc(OC2CCN(C(=O)C3CC3)CC2)cc1 (stereo unspecified),0.3,4.2,0.68,1.4,i,-4.3,-0.6
CC(C)(C)OC(=O)NC(CNCc1ccccc1)Cc1ccccc1 (stereo unspecified),-1.1,-5.1,0.651,3.0,i,-10.6,0.3
CCCCCCCCCc1nc(N)n[nH]1,-6.3,1.6,0.712,-3.1,nt,-3.2,-2.3
CCOC(=O)c1ccoc1CSCc1ccc(C(=O)OC)o1,8.2,-1.2,0.7,2.5,nt,98.9*,0.1
CC(C)(C)OC(=O)N[C@H](C(=O)OC(C)(C)C)c1ccc(C(F)(F)F)cc1,-4.1,-0.3,nt,0.6,i,-12.6,-0.8
CCC(C(=O)N1CCN(C(=O)c2ccco2)CC1)c1ccccc1 (stereo unspecified),-5.2,-1.6,0.67,3.3,nt,2.7,1.1
CC(Oc1cc2oc(=O)c3c(c2cc1Cl)CCC3)C(=O)NCCCN1CCOCC1 (stereo unspecified),-12.8,0.6,0.658,-13.3,i,-1.0,3.0
S=C(NCCc1ccccc1)N1CCN(Cc2ccc(Cl)c(Cl)c2)CC1,-2.5,1.4,0.709,4.0,i,-5.9,-3.3
Cc1nn(-c2ccc(Cl)cc2Cl)c(=O)c2ccccc12,-8.7,-0.8,0.676,3.7,i,-0.8,1.4
O=C(CCN1C(=O)c2ccccc2C1=O)Nc1cc(F)ccc1F,-7.5,-2.6,0.725,0.5,nt,-2.3,0.5

# As entered above:
# CC(C)(C)OC(=O)N[C@H](C(=O)OC(C)(C)C)c1ccc(C(F)(F)F)cc1 @ HNF4A DNA FP = -0.3
# CCOC(=O)c1ccoc1CSCc1ccc(C(=O)OC)o1 @ B2AR ag = 8.2

# (listing goes on)
structure,B2AR ag,HNF4A DNA FP,E coli growth,UCH37 DUB inh,FGF22 binding,ALR H2O2 inh,LANA-H2A inh
Cc1ccc(NC(=O)CN2CCOCC2)cc1S(=O)(=O)N1CCCCC1,-0.4,1.2,0.722,1.6,i,-9.6,-1.2
O=C(COc1cccc(C(F)(F)F)c1)NCC(c1ccco1)N1CCCCC1 (stereo unspecified),-11.1,-1.7,0.625,4.9,i,2.3,0.9
CCOc1cc2[nH]c(=S)n(Cc3ccc(C(=O)NCCCN(CC)CC)cc3)c(=O)c2cc1OCC,16.4,3.6,0.641,4.4,i,nt,-1.3
CCOC(=O)C1CCCN(C(=O)c2cc(-c3ccc(C)cc3)nc3ccccc23)C1 (stereo unspecified),1.0,-1.5,0.717,-18.8,i,8.7,1.1
COc1ccccc1NC(=O)CSc1nnc(-c2ccccn2)n1Cc1ccco1,-1.5,-0.9,0.653,0.6,nt,97.1*,5.2
CCCC(C(=O)O)N1C(=O)/C(=C2\C(=O)N(C)c3ccccc32)SC1=S (stereo unspecified),1.2,0.5,nt,1.8,nt,46.9,2.3
COC(=O)c1nn(-c2ccc(OC)cc2)c(=O)cc1O,1.9,3.1,0.673,7.0,i,-11.2,0.6
Cc1ccc(NC(=O)CC2NCCNC2=O)cc1 (stereo unspecified),-4.0,-0.3,0.754,0.4,nt,-5.7,1.9
CC(C)(C)NC(=O)C(c1ccco1)N(C(=O)c1csnn1)c1ccccc1 (stereo unspecified),1.9,-2.1,0.684,5.3,nt,-3.6,-1.7
COc1ccc(/C=C2/S/C(=N/N=C3\CC4CCC3(C)C4(C)C)NC2=O)cc1 (stereo unspecified),0.5,1.1,nt,nt,nt,-2.1,5.9
COc1ccc(NC(=O)C(c2ccc(C)cc2)N(C)C(=O)Cc2cccs2)cc1 (stereo unspecified),-0.2,1.5,0.632,2.6,i,-8.0,3.0
Cc1nn(-c2ccccc2)c(C)c1/C=C/C(=O)OCC(=O)NC1CCS(=O)(=O)C1 (stereo unspecified),7.6,1.2,0.661,0.2,i,3.5,-10.3
Cc1ccccc1N1CCN(C2CCCN(C(=O)c3noc4c3CCCC4)C2)CC1 (stereo unspecified),8.6,3.5,0.688,0.9,i,9.3,-1.7
Brc1ccc(Cn2c(-c3cncs3)nc3ccccc32)cc1,-2.8,3.2,0.734,-0.6,nt,-8.1,-0.1
COc1ccc(C2NC(=S)NC(C)=C2C(=O)c2ccccc2)cc1OC (stereo unspecified),-6.6,5.5,0.702,7.6,nt,-44.0,0.3
O=C(O)c1cccc(NC(=O)c2cn(-c3ccccc3)nc2-c2ccc([N+](=O)[O-])cc2)c1,14.5,-0.9,0.603,6.5,i,45.7,0.0
Cc1cc(Cl)ccc1NC(=S)NC1CCCC1,-0.9,0.8,0.654,2.2,i,5.8,-4.3
O=C(CN1C(=O)CSC1=O)Nc1ccc2c(c1)OCCO2,-0.9,-2.7,0.734,-0.5,nt,-6.9,-0.5
CC(=O)N/C(=C/c1ccc2c(c1)OCO2)C(=O)NCc1ccccc1,0.3,-1.9,0.652,2.8,i,0.1,-0.5
O=P(O)(CP(=O)(c1ccccc1)c1ccccc1)c1ccccc1O,-3.1,0.6,0.685,2.2,nt,-7.5,1.9
CCC(C)NC(=O)c1cc(Cl)c(NC(=O)C2=C(C)OCCS2)cc1OC (stereo unspecified),3.8,0.0,0.67,1.2,i,-3.7,4.9
CCn1c(SCC(=O)c2c(N)n(C)c(=O)n(C)c2=O)nnc1-c1ccccc1,nt,nt,0.673,1.2,nt,-1.6,0.9
O=C(Cn1c(=O)n(CCc2c[nH]c3ccccc23)c(=O)c2cccnc21)Nc1ccccc1F,1.9,-0.1,0.752,3.9,i,21.6,-1.8
CCn1c(SCC(=O)N2CCN(c3ccc(F)cc3)CC2)nc2ccccc2c1=O,12.2,3.7,0.7,6.0,nt,-0.8,0.2
